High-throughput results from PubChem BioAssay.
NOMO-1 viab – STK33 inhibitor candidate reducing NOMO-1 cell viability; NOMO-1 AML viability, CellTiter-Glo luminescence, 72 h; inhibition, % (test concentration not listed); AID 2330; 37,000 compounds, 7.5% hits;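 active = most replicates above 80%; inconclusive = exactly half above 80%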;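 also: wells of about 30 µL received 25 nL stock; 0% = median of vehicle wells and 100% = reference inhibitor level; the first replicate is given; inactives centre near 10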
An asterisk follows results filed as active; ? = inconclusive.

SMILES | NOMO-1 viab
C[C@@H]1CN([C@@H](C)CO)C(=O)c2cc(NC(=O)CCCCCC(=O)Nc3ccccc3N)ccc2O[C@@H]1CN(C)S(C)(=O)=O | -11
C[C@@H]1CN([C@H](C)CO)C(=O)Cc2cc(NC(=O)Nc3cccc4ccccc34)ccc2O[C@@H]1CN(C)Cc1ccc(Cl)c(Cl)c1 | 115*
C[C@@H]1CN([C@H](C)CO)C(=O)Cc2cc(NS(=O)(=O)c3ccc(F)cc3)ccc2O[C@@H]1CN(C)Cc1ccncc1 | -12
Cc1ccc(NC(=O)COc2ccc(CO)cc2Cl)cc1 | -27
CCOc1ccccc1CNCCN1CCOCC1 | ?
COc1ccc(S(=O)(=O)N(C)C[C@@H]2Oc3ccc(NC(=O)Nc4ccc5c(c4)OCO5)cc3C(=O)N([C@@H](C)CO)C[C@H]2C)cc1 | -33
C=Cc1ccc(O[C@@H]2O[C@H](CO[C@@H]3O[C@@H](C)[C@H](O)[C@@H](O)[C@H]3O)[C@@H](O)[C@H](O)[C@H]2O)cc1 | -19
Cc1ccc(S(=O)(=O)N(C)C[C@H]2Oc3ccc(NC(=O)Nc4c(C)noc4C)cc3C(=O)N([C@H](C)CO)C[C@H]2C)cc1 | 17
CCc1ccc2oc(-c3cccc(NC(=O)COc4ccccc4)c3)nc2c1 | 16
CNC[C@H]1Oc2ccc(NC(=O)Cn3cnnn3)cc2C(=O)N([C@H](C)CO)C[C@@H]1C | 6
C[C@@H]1CN([C@@H](C)CO)C(=O)c2cccc(NC(=O)c3nc4ccccc4s3)c2O[C@H]1CN(C)S(C)(=O)=O | 4
COc1ccc(CN(C)C[C@@H]2OCCCC[C@@H](C)Oc3ccc(NS(=O)(=O)c4ccccc4)cc3C(=O)N([C@H](C)CO)C[C@@H]2C)cc1 | 26
CCNC(=S)Nc1sc2c(c1C#N)CCC(C)C2 (stereo unspecified) | 19
C[C@@H]1CN([C@@H](C)CO)C(=O)c2cc(NC(=O)NC3CCCCC3)ccc2O[C@@H]1CN(C)S(C)(=O)=O | 1
C[C@@H]1CN([C@H](C)CO)C(=O)c2cc(NC(=O)CCCN(C)C)ccc2O[C@H]1CN(C)S(=O)(=O)c1cn(C)cn1 | -20

Reprinted at random: 5 compounds from above
SMILES | NOMO-1 viab
C[C@@H]1CN([C@H](C)CO)C(=O)c2cc(NC(=O)CCCN(C)C)ccc2O[C@H]1CN(C)S(=O)(=O)c1cn(C)cn1 | -20
COc1ccc(CN(C)C[C@@H]2OCCCC[C@@H](C)Oc3ccc(NS(=O)(=O)c4ccccc4)cc3C(=O)N([C@H](C)CO)C[C@@H]2C)cc1 | 26
Cc1ccc(S(=O)(=O)N(C)C[C@H]2Oc3ccc(NC(=O)Nc4c(C)noc4C)cc3C(=O)N([C@H](C)CO)C[C@H]2C)cc1 | 17
C[C@@H]1CN([C@@H](C)CO)C(=O)c2cccc(NC(=O)c3nc4ccccc4s3)c2O[C@H]1CN(C)S(C)(=O)=O | 4
CNC[C@H]1Oc2ccc(NC(=O)Cn3cnnn3)cc2C(=O)N([C@H](C)CO)C[C@@H]1C | 6

(listing goes on)
SMILES | NOMO-1 viab
CS(=O)(=O)N(CC(=O)Nc1ccc(Br)cc1)c1cc(Cl)cc(Cl)c1 | 20
Cc1noc(C)c1NC(=O)N(C)C[C@H]1Oc2ccc(NC(=O)Nc3ccc4c(c3)OCO4)cc2CC(=O)N([C@@H](C)CO)C[C@@H]1C | 7
C[C@@H]1CCCCO[C@@H](CN(C)C(=O)c2ccncc2)[C@@H](C)CN([C@H](C)CO)C(=O)c2cc(NC(=O)C3CCCCC3)ccc2O1 | 11
Cc1ccc(S(=O)(=O)Nc2cccc3c2O[C@@H](CN(C)S(=O)(=O)c2cccs2)[C@H](C)CN([C@H](C)CO)C3=O)cc1 | -3
COc1ccc(OCC(=O)Nc2cccc(C(=O)O)c2C)cc1 | 0
CCC(Sc1nnc(-c2ccccc2)n1-c1ccccc1)C(=O)Nc1ccc(Cl)cc1 (stereo unspecified) | 23
Cc1ccc(S(=O)(=O)Nc2ccc3c(c2)C(=O)N([C@@H](C)CO)C[C@H](C)[C@@H](CN(C)C(=O)Nc2c(C)noc2C)O3)cc1 | 16
Cc1sc2ncnc(SCC(=O)c3ccc(Cl)cc3)c2c1C | 22
C[C@H](CO)N1C[C@H](C)[C@@H](CN(C)C(=O)Nc2ccccc2)Oc2c(NC(=O)c3ccc(-c4nccs4)cc3)cccc2C1=O | 3
C[C@H]1CN([C@@H](C)CO)C(=O)Cc2cc(NC(=O)CCN3CCOCC3)ccc2O[C@@H]1CN(C)S(=O)(=O)c1cccs1 | 6
C[C@H]1CN([C@@H](C)CO)C(=O)Cc2cc(NC(=O)C3CCCCC3)ccc2O[C@H]1CN(C)S(=O)(=O)c1ccc(Cl)cc1 | 2
O=C(CCc1nc2ccccc2[nH]c1=O)OCc1c(F)cccc1Cl | 14
Cc1cc(C(=O)Nc2cccc3c2O[C@H](CN(C)CC2CC2)[C@H](C)CN([C@H](C)CO)C3=O)n(C)n1 | 6
COc1ccccc1-c1cc(=O)c2c(O[C@@H]3O[C@H](CO)[C@@H](O)[C@H](O)[C@H]3O)cc(OC)c(OC)c2o1 | 20
C=CC(C)(C)[C@@]12CC(=O)C(=O)N3/C(=C/c4cnc[nH]4)C(=O)N[C@]31N(OC)c1ccccc12 | 118*
C=C(C(=O)O)C1CCC2(C)CCCC(C)(O)C2C1 (stereo unspecified) | 15
COc1ccc(NC(=O)Nc2cccc3c2O[C@@H](CN(C)C(=O)Nc2ccc4c(c2)OCO4)[C@@H](C)CN([C@H](C)CO)C3=O)cc1 | 14
CC(C)NC(=O)Nc1cccc2c1O[C@H](CN(C)Cc1ccc(C(F)(F)F)cc1)[C@@H](C)CN([C@@H](C)CO)C2=O | 48
C[C@H]1CN([C@@H](C)CO)C(=O)Cc2cc(NC(=O)Nc3ccccc3)ccc2O[C@H]1CN(C)C(=O)Nc1ccc(F)cc1 | -4
O=C(COc1ccc([N+](=O)[O-])cc1)Nc1ccccc1-c1nc2ccccc2s1 | 35
C[C@H](CO)N1C[C@H](C)[C@@H](CN(C)Cc2ccc(C(=O)O)cc2)Oc2c(NC(=O)c3nc4ccccc4s3)cccc2C1=O | 18
O=C(COc1ccc(Br)cc1)Nc1cccc(NC(=O)c2ccc(Cl)cc2Cl)c1 | 26
C[C@H]1CN([C@@H](C)CO)C(=O)c2cccc(NC(=O)Nc3ccc(F)cc3)c2O[C@@H]1CN(C)C(=O)NC1CCCCC1 | -11
C[C@H]1CN([C@@H](C)CO)C(=O)c2cccc(NC(=O)c3ccncc3)c2O[C@@H]1CN(C)Cc1ccncc1 | -3
CC1(C)Cc2c(sc3nc(SCC(=O)c4ccc(Cl)cc4)nc(N)c23)CS1 | 24
COc1ccc(OCC(=O)Nc2cc(-c3nc4ccccc4o3)ccc2C)cc1 | 22
N#CCC(c1ccccc1)c1ccccc1 | -5
Cc1ccc(S(=O)(=O)Nc2ccc3c(c2)C(=O)N([C@@H](C)CO)C[C@H](C)[C@H](CN(C)C(=O)Nc2c(C)noc2C)O3)cc1 | 14
C[C@@H]1CN([C@H](C)CO)C(=O)c2cccc(NC(=O)C3CCOCC3)c2O[C@H]1CN(C)CC1CC1 | 14
Cc1noc(C)c1S(=O)(=O)N(C)C[C@H]1Oc2ccc(NC(=O)CCCN(C)C)cc2C(=O)N([C@H](C)CO)C[C@H]1C | 12
Cc1ccc(S(=O)(=O)N2Cc3ccccc3C(C)CC23CCCCC3)cc1 (stereo unspecified) | 88*
C[C@H]1CN([C@@H](C)CO)C(=O)Cc2cc(NC(=O)CCCCCC(=O)Nc3ccccc3N)ccc2O[C@@H]1CN(C)CC1CCCCC1 | 102*
C[C@@H]1CN([C@H](C)CO)C(=O)Cc2cc(NC(=O)Nc3ccc(C(F)(F)F)cc3)ccc2O[C@H]1CN(C)Cc1ccc(C(=O)Nc2ccccc2N)cc1 | 24
CC1CCC(O)C2C=CC(C)(O)C(C)(C(=O)CCO)C12 (stereo unspecified) | 6
COc1ccc(NC(=O)Nc2ccc3c(c2)C(=O)N([C@@H](C)CO)C[C@H](C)[C@H](CN(C)Cc2ccccc2)O3)cc1 | 7
C[C@H](CO)N1C[C@H](C)[C@@H](CN(C)S(=O)(=O)c2cccs2)Oc2ccc(NS(=O)(=O)c3cccs3)cc2C1=O | 14
C[C@@H]1CN([C@@H](C)CO)C(=O)c2cc(NC(=O)NC3CCCCC3)ccc2O[C@@H]1CN(C)C(=O)Nc1ccccc1 | -6
C[C@H](CO)N1C[C@H](C)[C@@H](CN(C)C(=O)Nc2cccc3ccccc23)Oc2c(NC(=O)Nc3ccc(F)cc3)cccc2C1=O | 21
C[C@@H]1CN([C@@H](C)CO)C(=O)c2cc(NC(=O)CCCN(C)C)ccc2O[C@@H]1CN(C)C | 10
COC(=O)C1=CO[C@@H](OC2OC(O)C(O)C(O)C2CO)[C@H]2[C@@H]1C=CC21C=C([C@H](C)O)C(=O)O1 (stereo partly specified) | 12
CNC[C@@H]1Oc2c(NC(=O)Nc3ccc(OC)cc3)cccc2C(=O)N([C@@H](C)CO)C[C@@H]1C | 4
COc1ccc(NC(=O)Nc2cccc3c2O[C@@H](CN(C)C(=O)NC(C)C)[C@@H](C)CN([C@H](C)CO)C3=O)cc1 | 27
Cc1ccc(S(=O)(=O)N(C)C[C@@H]2Oc3c(NC(=O)c4cc(C)nn4C)cccc3C(=O)N([C@H](C)CO)C[C@@H]2C)cc1 | 22
CC(C)NC(=O)N(C)C[C@H]1OCCCC[C@@H](C)Oc2ccc(NC(=O)Nc3cccc4ccccc34)cc2C(=O)N([C@H](C)CO)C[C@@H]1C | 32
Cc1ccc(S(=O)(=O)Nc2cccc3c2O[C@H](CN(C)Cc2ccc(C(=O)O)cc2)[C@@H](C)CN([C@H](C)CO)C3=O)cc1 | -2
COc1ccc(NC(=O)N(C)C[C@H]2Oc3ccc(NC(=O)C4CCCCC4)cc3C(=O)N([C@@H](C)CO)C[C@@H]2C)cc1 | 2
COc1ccccc1CN1CC(C(=O)O)CC1=O (stereo unspecified) | 0
N#CCC(=O)NCc1cccs1 | 29
C[C@@H]1CN([C@H](C)CO)C(=O)c2cc(NC(=O)Cn3cnnn3)ccc2O[C@H]1CN(C)S(C)(=O)=O | 21
C[C@@H]1CN([C@H](C)CO)C(=O)c2cccc(NC(=O)Nc3cccc4ccccc34)c2O[C@@H]1CN(C)CC1CCCCC1 | 35
C[C@H]1CN([C@@H](C)CO)C(=O)c2cc(NC(=O)Nc3ccc4c(c3)OCO4)ccc2O[C@H]1CN(C)C(=O)Nc1ccc2c(c1)OCO2 | -3
COC(=O)c1c(NC(=O)c2ccc(N(C)S(=O)(=O)c3ccccc3)cc2)sc2c1CCCC2 | -1
COC(=O)c1ccccc1NC(=O)CN(C)S(=O)(=O)c1ccc2ccccc2c1 | 36
N#Cc1c(C(F)(F)F)cc(-c2ccco2)nc1SCc1ccccn1 | 17
O=c1cc(-c2ccccc2)oc2cccc(O)c12 | 28
CC(C)(C)OC(=O)NC1CCN(C(=O)CSCC(=O)O)CC1 | 15
C[C@@H]1CCCCO[C@H](CN(C)S(=O)(=O)c2ccc(Cl)cc2)[C@@H](C)CN([C@H](C)CO)C(=O)c2cc(NC(=O)Nc3ccccc3)ccc2O1 | 34
COc1ccc(N(C(C)C(=O)Nc2ccccc2Cl)S(C)(=O)=O)cc1 (stereo unspecified) | 9
C[C@@H]1CN([C@@H](C)CO)C(=O)c2cc(NC(=O)CCCCCC(=O)Nc3ccccc3N)ccc2O[C@H]1CN(C)C | -10
C[C@H]1CN([C@@H](C)CO)C(=O)c2cc(NS(=O)(=O)c3ccc(Cl)cc3)ccc2O[C@H]1CN(C)C(=O)Nc1ccc(C(F)(F)F)cc1 | 75

Further compounds
SMILES | NOMO-1 viab
C[C@@H]1CCCCO[C@@H](CN(C)Cc2ccncc2)[C@@H](C)CN([C@H](C)CO)C(=O)c2cc(NS(=O)(=O)c3cccs3)ccc2O1 | 5
COc1ccc(NC(=O)Nc2ccc3c(c2)C(=O)N([C@H](C)CO)C[C@@H](C)[C@H](CN(C)Cc2ccc(C(=O)O)cc2)O3)cc1 | -16
Cc1nnc(SCC(=O)Nc2ccc(I)cc2C)s1 | -13
CCN(CC)C(=O)N1CCN(CCC#N)CC1 | 22
C[C@@H]1CN([C@H](C)CO)C(=O)Cc2cc(NC(=O)C3CC3)ccc2O[C@@H]1CN(C)C(=O)Nc1ccc2c(c1)OCO2 | 28
Cc1ccc(-c2cc3ccccn3c2C(=O)CSc2nnc(C)s2)cc1 | 3
C[C@H](CO)N1C[C@H](C)[C@@H](CN(C)S(=O)(=O)c2ccc(Cl)cc2)Oc2c(NC(=O)Nc3ccccc3)cccc2C1=O | 53
Nc1ncnc(Oc2cccc3cccnc23)c1[N+](=O)[O-] | 108*
Cc1noc(C)c1NC(=O)N(C)C[C@H]1Oc2ccc(NC(=O)Nc3ccccc3)cc2CC(=O)N([C@@H](C)CO)C[C@H]1C | 11
COc1ccccc1NC(=O)c1ccc(OCC(=O)O)cc1 | -19
OC(CN1CCNCC1)Cn1c2ccc(Br)cc2c2cc(Br)ccc21 (stereo unspecified) | 121*
COc1ccc(S(=O)(=O)N(C)C[C@H]2Oc3ccc(NS(=O)(=O)c4ccc(C)cc4)cc3CC(=O)N([C@@H](C)CO)C[C@@H]2C)cc1 | 16
C[C@@H]1CN([C@H](C)CO)C(=O)Cc2cc(NC(=O)Nc3ccc4c(c3)OCO4)ccc2O[C@@H]1CN(C)C(=O)Nc1ccc(F)cc1 | -18
C[C@@H]1CN([C@H](C)CO)C(=O)c2cc(NS(=O)(=O)c3ccc(Cl)cc3)ccc2O[C@@H]1CN(C)Cc1ccc2c(c1)OCO2 | 22
COc1ccc(CC(=O)NC2CCCCC2)cc1OC | 16
Cc1nc2cc(NC(=O)NCc3ccco3)ccc2n1C | -3
CCc1ccccc1NC(=O)CSc1nnc(-c2cc3ccccc3cc2O)n1C | 15
C[C@@H]1CCCCO[C@H](CN(C)Cc2ccc(Cl)c(Cl)c2)[C@@H](C)CN([C@H](C)CO)C(=O)c2cc(NC(=O)Nc3ccccc3)ccc2O1 | ?

A portion of the library; the hit share may differ from the screen's.
